Source: PubChem (several laboratories)
Calb FLC: C. albicans growth inhibition with fluconazole, primary screen, CaCi-2 strain, Alamar Blue fluorescence; growth inhibition, % (no concentration beside the values); C. albicans CaCi-2 (fluconazole-resistant clinical isolate) + fluconazole, 48 h; 300,000 tested, 0.57% active;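 active = most replicates above 75%; inconclusive = exactly half above 75%; inactive = most below 75%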;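 also: all wells also contain fluconazole at 8 µg/ml as a sub-toxic cotreatment; 0% = median of DMSO wells and 100% = median of geldanamycin control wells; wells of about 8 µL received 7.5 nL stock; the first replicate is given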
T cruzi repl: inhibitors of intracellular T. cruzi growth, primary screen, luminescence, NIH3T3 host cells; T. cruzi beta-gal in NIH3T3, 90 h; inhibition, % (test concentration not listed); 300,000 tested, 1.4% active;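 active = mean inhibition across valid replicates above about 55%, limit read from the data; inconclusive = mean below that limit but half or more replicates reach it; inactive = mean below it, under half of replicates reach it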;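 also: signal also drops with host cell toxicity which is not excluded here; 0% = plate median of DMSO wells and 100% = zero luminescence signal; higher percent means less beta-gal luminescence so fewer parasites; stock transfer was 50 nL into about 50 µL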
LANA-H2A inh: blockers of LANA interaction with H2A/H2B – biochemical, FP readout, HTS, primary screen. cell-free LANA-H2A/H2B peptide, fluorescence polarization. Protein LANA1 (Human herpesvirus 8 type P (isolate GK18)), Q9QR71. inhibition, % (no concentration beside the values). 320,000 tested, 0.6% active; in the data active = inhibition mostly above about 10%, no sharp cut-off; inactive = mostly below about 6.7%;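 also: stock transfer was 7.5 nL into about 10 µL; 0% = median of vehicle wells and 100% = median of positive control wells; one replicate is shown; the record names a cut of 25% in any replicate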
Target sequence (Q9QR71 whole entry, looked up): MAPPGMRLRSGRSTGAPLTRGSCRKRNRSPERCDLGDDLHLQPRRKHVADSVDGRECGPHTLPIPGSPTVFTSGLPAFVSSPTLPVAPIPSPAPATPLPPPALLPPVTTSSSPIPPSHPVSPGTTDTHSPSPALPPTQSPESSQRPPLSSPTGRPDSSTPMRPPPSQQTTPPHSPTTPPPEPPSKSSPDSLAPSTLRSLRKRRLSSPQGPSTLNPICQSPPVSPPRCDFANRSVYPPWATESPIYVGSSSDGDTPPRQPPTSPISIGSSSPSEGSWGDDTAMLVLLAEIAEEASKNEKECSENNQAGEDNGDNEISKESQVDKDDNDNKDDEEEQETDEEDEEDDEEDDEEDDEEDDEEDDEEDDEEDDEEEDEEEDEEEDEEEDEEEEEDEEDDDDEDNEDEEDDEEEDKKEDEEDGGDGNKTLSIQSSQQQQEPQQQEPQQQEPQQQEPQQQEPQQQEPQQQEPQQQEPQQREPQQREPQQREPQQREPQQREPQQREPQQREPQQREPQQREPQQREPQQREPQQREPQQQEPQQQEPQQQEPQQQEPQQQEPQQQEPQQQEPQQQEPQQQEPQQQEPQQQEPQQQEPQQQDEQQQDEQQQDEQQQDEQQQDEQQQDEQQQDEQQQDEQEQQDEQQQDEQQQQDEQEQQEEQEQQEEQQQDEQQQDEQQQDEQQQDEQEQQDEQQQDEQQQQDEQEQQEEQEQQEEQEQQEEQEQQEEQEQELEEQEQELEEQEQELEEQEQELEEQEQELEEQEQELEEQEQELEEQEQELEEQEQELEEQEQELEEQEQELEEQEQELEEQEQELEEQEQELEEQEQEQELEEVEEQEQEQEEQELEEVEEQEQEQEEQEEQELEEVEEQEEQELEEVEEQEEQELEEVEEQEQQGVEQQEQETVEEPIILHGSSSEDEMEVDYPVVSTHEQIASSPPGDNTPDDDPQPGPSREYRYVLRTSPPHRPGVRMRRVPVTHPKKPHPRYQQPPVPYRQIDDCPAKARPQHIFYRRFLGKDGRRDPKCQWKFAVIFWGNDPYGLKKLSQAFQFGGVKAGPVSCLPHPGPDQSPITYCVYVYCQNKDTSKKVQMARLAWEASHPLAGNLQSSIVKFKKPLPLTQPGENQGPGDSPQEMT
MLL AF4-AF9 inh: inhibitors of AF4 peptide binding to AF9, primary screen, biochemical, AlphaScreen, biotin-AF4 peptide, FLAG-AF9, single point. 350,000 tested, 0.47% active. AID 651704, 2012. inhibition, % at 10 µM;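 active = every replicate reaching a set inhibition limit, whatever the replicate mean, cut at about 25% in these data; inconclusive = mean inhibition reaches that limit but some replicates miss it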;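 also: 0% = plate neutral control median and 100% = total signal loss; the record names both 10 and 1 µM as test concentration; the first replicate is given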
Bfl-1 A1 inh: caspase 3/7 activation in MEF A1-2A-BIM cells, primary screen, A1 inhibitor project, cell-based, luminescence, HTS. caspase activation, % (concentration not given with the values). 330,000 tested, 0.066% active. AID 2462, 2010. Caspase-Glo 3/7 luminescence, 3 h; percent of clofoctol response, vehicle zero;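 active = over half of replicate activation scores above 10%, or exactly half above 10 with the replicate mean above 10; inconclusive = replicate mean below 10 yet half the replicates above 10; inactive = over half of replicates below 10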;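 also: wells of about 30 µL received 50 nL stock; many hits fall short of the cut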
Beta apoptosis: inhibitors of cytokine-induced beta cell apoptosis, primary screen, luminescence; 300,000 tested, 0.8% active; INS-1E cytokine-induced death, ATP luminescence, 48 h; percent of positive-control rescue, neutral wells zero; protection from apoptosis, % (test concentration not listed);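 active = all replicates at 75% or more, or half of them and the mean; inconclusive = half reach 75% but not the mean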;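 also: 0% = cytokine-treated negative control wells and 100% = positive control rescue; higher means more ATP so stronger rescue from cytokine killing; wells of about 40 µL received 100 nL stock; the first replicate is given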
Vif A3G: inhibitors of Vif binding to APOBEC3G peptide, primary screen, biochemical, TR-FRET, GST-Vif 1-94, biotin-A3G peptide, dose response retest (AID 1117319) | Virion infectivity factor (Human immunodeficiency virus type 1 group M subtype B (isolate … | TR-FRET GST-Vif / biotin-A3G peptide binding; higher % means a stronger effect; test concentration not given here; strong numbers were not always called active | inhibition, %, or IC50 in µM where a hit was titrated | 260,000 tested, 0.57% active;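 active = above the screen mean plus three standard deviations and confirmed in dose response; inconclusive = results disagree or hit not tested in dose response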;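 also: Vif residues 1-94 fused to GST binding biotinylated APOBEC3G peptide 110-148; 0% = full assay without inhibitor and 100% = GST in place of GST-Vif; retest series ran down from 100 µM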
RanGTP-Imp inh: inhibitors of RanGTP-importin-beta interaction, primary screen, biochemical, FRET, CFP-Ran, YFP-importin-beta, homogeneous; cell-free CFP-Ran/YFP-importin-beta FRET ratio; inhibition, % (test concentration not listed); Ran GTPase (GTP-bound) - importin-beta complex; 300,000 tested, 1.1% active;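 active = most replicates above 15%; inconclusive = exactly half above 15%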;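 also: 0% = DMSO wells and 100% = Ran loaded with GDP instead of GTP; wells of about 40 µL received 100 nL stock; the first replicate is given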
* hit, by the source's call; ? = inconclusive; . = not tested or not shown.

Fields: LANA-H2A inh	Calb FLC	Bfl-1 A1 inh	Beta apoptosis	T cruzi repl	Vif A3G	MLL AF4-AF9 inh	RanGTP-Imp inh
CN1C2C=C3C(C#N)=C(N)C(C#N)(C#N)[C@@H](c4ccc(Cl)cc4)[C@@H]3C1CC2 (stereo partly drawn)
 : -1.2	7	-0.3	2	13	6%	.	7.4
O=C(O)C1C2CCC(C2)C1C(=O)NCCc1cccc(Cl)c1 (stereo not drawn)
 : -3.0	-3	0.2	-6	-17	.	-13	-4.2
NC(=O)C1CCN(CC(=O)Nc2nc(-c3ccccc3)cs2)CC1
 : -1.1	8	0.5	2	-9	.	2.7	-2.0
CC(C)c1ccc(-c2nn[nH]n2)cc1
 : -3.2	-1	0.5	-2	14	4%	.	-1.5
CN(Cc1nccs1)C(=O)C1CCC(=O)N(Cc2ccccc2F)C1 (stereo not drawn)
 : 0.4	0	0.7	-4	-9	.	-2.2	3.3
Oc1c(CN2CCN(c3ccccn3)CC2)cc(Cl)c2cccnc12
 : -2.6	8	-0.1	109*	75*	15%	.	24*
CC(C)C(NC(=O)/C(=C/c1ccco1)NC(=O)c1ccc(Br)o1)C(=O)O (stereo not drawn)
 : -4.8	-12	-0.9	-4	-2	26%	-3.1	0.1
COc1ccc(-n2c(=S)[nH]c3cc(C(=O)NCc4ccco4)ccc3c2=O)c(OC)c1
 : 0.3	12	1.0	0	-2	7%	.	0.7
Cc1ccc(NS(=O)(=O)c2c(C)nc3sccn3c2=O)c(C)c1
 : -0.5	0	-0.3	0	-4	.	-12	-3.4
CN(c1nc(-c2ccccc2)cs1)C1CCS(=O)(=O)C1 (stereo not drawn)
 : -3.2	-8	-0.6	-3	-10	13%	7.4	1.4
FC(F)(F)c1nc2ccccc2n2c(-c3c(Cl)cccc3Cl)nnc12
 : 1.5	22	-0.6	7	-10	13%	.	4.0
O=C(O)CCCCCNC(=O)Nc1ccc2c(c1)OCCO2
 : 8.7	-7	0.9	-3	-1	1%	.	4.7
Cc1ccc2c(n1)CC(C)(C)C/C2=N\O
 : 1.1	-14	0.3	-8	-14	-3%	.	-7.3
O=C(Nc1cccc(Cl)c1)c1ccc(F)c(S(=O)(=O)NCc2cccs2)c1
 : 3.6	?	-0.6	-2	44	10%	3.8	1.3
Cc1cc(=O)oc2cc(OCc3ccc(S(=O)(=O)N4CCOCC4)cc3)ccc12
 : 2.8	22	-3.7	-14	31	5%	.	6.2
COc1cccc(C2=NOC(C(=O)NCCCn3ccnc3)C2)c1 (stereo not drawn)
 : 2.5	-7	1.1	-4	-10	-2%	.	1.1
CC(C)(C)c1cc(NC(=O)CSc2nnc(NCc3ccccc3)s2)n(-c2ccccc2)n1
 : 3.0	0	-1.0	0	24	-6%	1.7	?
CCOC(=O)[C@H]1[C@H]2COc3ccc(OC)cc3[C@@H]2N2C(=O)CN(CC3CCCO3)C(=O)[C@@]12C (stereo partly drawn)
 : 5.7	.	?	5	.	.	0.4	.
O=C(NC1CCCCC1)C(c1ccc(F)cc1)N(C(=O)c1cccs1)c1ccc2c(c1)OCO2 (stereo not drawn)
 : 1.7	19	0.1	.	3	17%	2.9	0.5
O=C(COC(=O)c1cc(-c2cccc(Br)c2)nc2ccccc12)NCC1CCCO1 (stereo not drawn)
 : -1.6	5	-1.1	0	3	-11%	0.1	-3.0
Cc1ccccc1NC(=S)N/N=C1\CC(C)(C)Oc2ccc(O)cc21
 : 1.9	33	0.3	12	-18	5%	?	1.3
N#CCCCSC1=C(C#N)C(c2ccccc2Cl)CC(=O)N1 (stereo not drawn)
 : 0.3	-9	-1.1	.	-10	14%	.	-5.3
Cc1onc(-c2ccccc2Cl)c1C(=O)Nc1nnc(-c2ccc(F)cc2)s1
 : -0.1	-1	0.1	-6	-6	-13%	5.2	-1.4
Cc1cc(Nc2cccc([N+](=O)[O-])c2)n2c(nc3ccccc32)c1C#N
 : 2.6	12	-1.9	108*	76*	27%	.	-1.2
OCC[C@H]1C[C@H](O)[C@@H](O)[C@]2(Cc3ccccc3O2)O1
 : -5.2	.	1.8	0	.	.	-20	.
Cc1ccc2nc(NC(=O)c3ccc(Br)o3)sc2c1
 : -0.6	1	-4.7	10	-1	.	-3.1	1.2
CC(=O)N1CCN(S(=O)(=O)c2cccc(C(=O)Nc3nc4c(s3)CCCC4)c2)CC1
 : -1.2	-7	-0.8	-4	43	7%	.	-2.6
O=C(NN=C(Cc1ccccc1)Cc1ccccc1)c1ccccc1O
 : 1.6	-42	-0.5	0	0	.	0.4	6.1
CCCCc1ncc(CN2CCC(n3nccc3NC(=O)c3ccccc3Cl)CC2)[nH]1
 : -3.2	-19	0.3	4	-5	.	-0.4	2.7
O=C(C[n+]1ccccc1)c1ccc(Cl)cc1
 : 0.0	-2	2.0	-1	-11	10%	-1.8	2.0
O=C(NC1CCN(C(=S)Nc2ccc(Cl)cc2)CC1)C1CCCCC1
 : 3.0	0	-0.3	2	-9	.	-1.6	2.8
COc1ccc(-c2noc(CCC(=O)NC3CCCC3)n2)cc1
 : 2.0	-7	-0.1	4	1	10%	-2.3	0.4
CCN(CC)S(=O)(=O)c1cccc(-c2nnc(SCC(=O)NC3CCCC3)n2N)c1
 : 4.9	-9	0.6	-5	-9	?	.	0.1
CC(=O)c1ccc(NC(=O)CSc2n[nH]c(-c3cccnc3)n2)cc1
 : -0.1	-5	0.3	-4	-3	.	0.7	-0.3
COc1ccc(Oc2coc3cc(OC(=O)/C=C/c4ccc(F)cc4)ccc3c2=O)cc1
 : 1.5	3	0.4	2	-4	-1%	1.1	-0.3
Cc1ccc2c(c1)C1(OCCCO1)C(=O)N2
 : 0.6	1	?	-2	0	-1%	-1.5	1.8
CCOc1ccc(NC(=O)c2cccc(-n3cnnn3)c2)cc1
 : -4.5	-9	0.3	-3	1	-4%	.	-2.2
O=[N+]([O-])c1ccc(-c2nc(-c3ccncc3)no2)cc1
 : 0.0	-3	-1.2	2	8	2%	0.0	-3.9
CCCCC(=O)Nc1cccc(NC(=S)NC(=O)Cc2ccccc2)c1
 : 0.7	-12	0.6	-1	-20	4%	.	-1.0
CNC(=O)NC(=O)C(NC1CCCc2ccccc21)c1ccccc1 (stereo not drawn)
 : -6.1	3	0.1	-2	5	2%	3.4	?
COc1ccc(OC)c(C(=O)c2ccc(C(=O)Nc3ccccc3)cc2)c1
 : 2.0	-9	0.4	-4	14	.	.	0.2
O=C(c1cc(F)c(F)cc1Cl)N1CCN(c2ncccn2)CC1
 : 12	-4	-0.5	-7	-13	.	0.5	-0.1
COc1cc(/C=N/NC(=O)c2ccc3nc[nH]c3c2)ccc1O
 : 1.3	8	0.0	-3	5	32%	1.5	-1.4
Cc1ccc(C)c(N2CCN(C(=O)Cc3ccc(-n4c(=O)[nH]c5ccsc5c4=O)cc3)CC2)c1
 : 0.7	-5	0.2	11	15	5%	.	-6.5
CC(Oc1ccc(Cl)cc1)C(=O)Nc1ccccc1N1CCOCC1 (stereo not drawn)
 : -1.5	.	0.0	6	.	-4%	-3.8	.
COc1ccccc1NC(=O)/C(=C\c1cccnc1)NC(=O)c1ccccc1
 : 2.6	54	0.9	-9	-9	6%	-2.5	8.6
O=C(O)c1sc2cccc(Cl)c2c1Cl
 : 6.0	-2	0.2	-2	17	1%	-17	0.8
COc1cc(NC(=O)c2cccc(Cl)c2)c(OC)cc1NC(=O)CN1CCOCC1
 : -2.8	0	0.2	5	12	-2%	.	4.2
O=C(COC(=O)C1CCCC1)NCc1ccc(Cl)cc1
 : 4.1	-4	1.1	-4	-2	4%	-1.4	2.9
CC(C)(C)OC(=O)N1CCC(c2c(C(=O)N3CCN(C(=O)c4ccco4)CC3)cnn2-c2ccc(F)cc2)CC1
 : 10	1	0.8	-1	0	.	-0.6	4.8
CN(C)c1cc(-c2ccc([N+](=O)[O-])cc2)oc(=O)c1Cl
 : 0.4	8	-0.7	1	-14	.	2.5	-0.3
CCOC(=O)c1c(C)[nH]c(C)c1C(=O)COC(=O)/C=C/c1ccccc1[N+](=O)[O-]
 : 3.1	.	0.8	-7	.	.	8.4	.
COc1ccc(C2C(C#N)=C(N)Oc3cc(N)ccc32)cc1OC (stereo not drawn)
 : -4.3	0	0.3	-2	-9	1%	.	71*
CCN(CC)S(=O)(=O)c1ccc(N(C)C)c(NC(=O)CC(NC(C)=O)c2ccccc2)c1 (stereo not drawn)
 : -2.7	13	-0.2	-2	1	1%	.	0.5
COc1cc(NC(=O)c2oc3ccccc3c2C)ccc1NC(=O)c1ccco1
 : 0.6	42	-0.2	0	23	.	-0.5	0.0
COC(=O)c1ccc(SC)cn1
 : -1.2	2	-0.3	1	1	-6%	-1.1	0.5
O=C(CN1C(=O)C2(OCCCO2)c2ccccc21)NCCc1ccccc1
 : -1.6	-8	0.2	-2	5	-1%	.	?
O=C(OCC(=O)N1CCCc2ccccc21)c1ccc(S(=O)(=O)C(F)F)cc1
 : 4.6	3	-0.2	-2	-1	2%	-16	2.5
Nc1nc(NCCOCCO)nc(N2CCCCCC2)c1[N+](=O)[O-]
 : -0.9	2	1.0	-1	-2	0%	0.3	2.4
COCCNC(=O)c1cc(-c2ccc(-c3ccccc3)cc2)nc2ccccc12
 : 2.6	28	-0.8	0	11	.	-5.9	-9.4

Other compounds
Fields: LANA-H2A inh	Calb FLC	Bfl-1 A1 inh	Beta apoptosis	T cruzi repl	Vif A3G	MLL AF4-AF9 inh	RanGTP-Imp inh
Cc1ccc(C)c(CSc2ccc3nnc(-c4ccccn4)n3n2)c1
 : -2.9	-2	1.7	6	22	-1%	3.3	-1.3
CC(C)(C)c1cc(C(=O)C[n+]2ccc(C(=O)NCCCO)cc2)cc(C(C)(C)C)c1O
 : 2.7	0	0.2	-1	-7	3%	-0.5	-0.3
N#CC(C(N)=O)=C1CCCCC1
 : 2.1	-2	0.9	2	-19	.	-0.7	7.4
CCOC(=O)c1ccc2c(c1)C(=O)N(C1CCCCC1)C2=O
 : 1.0	67	-0.6	-1	-8	7%	-1.8	0.2
CC1CCCCC1NC(=S)Nc1cccc(S(=O)(=O)N(C)C)c1 (stereo not drawn)
 : 4.9	-12	0.8	5	-12	77%	3.0	2.4
C=CCNC(=O)[C@@H]1CSC2c3ccc(OC)c(OC)c3C(=O)N21 (stereo partly drawn)
 : 1.9	-8	-0.7	-6	-8	-7%	-2.5	-1.8
Cc1nc(C)n(C(C)CNS(=O)(=O)c2ccc(Cl)cc2)n1 (stereo not drawn)
 : 1.9	-9	0.1	-5	-2	.	-2.1	1.9
COc1cccc(C(=O)NCC(=O)OCC(=O)Nc2cc(OC)c([N+](=O)[O-])cc2C)c1
 : 2.2	-6	1.5	-8	-25	8%	.	-0.4
CC1(C(=O)Nc2nnc(SCc3ccccc3)s2)Cc2ccccc2C(=O)O1 (stereo not drawn)
 : -2.5	38	-0.3	1	-17	-2%	.	-2.8
